LANA-nucl inh – inhibitors of KSHV LANA-nucleosome binding, primary screen, biochemical, fluorescence polarization, FITC-LANA1-23, chicken nucleosomes. FITC-LANA1-23 / chicken nucleosome fluorescence polarization; hits give low values. z-score (no concentration beside the values). 51,000 tested, 0.3% active;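 active = both repeat wells score below -2 in polarization z-score versus plate sample wells, excluding overly bright wells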;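 note: 100 nL library stock added to about 30 µL; numbers are from one replicate; some results filed as inactive read as strong as hits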
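Assay system: FITC-LANA peptide and chicken nucleosomes; input: 240 nM purified chicken nucleosomes (480 nM peptide binding sites), final; also added: 50 nM FITC-LANA1-23 probe; medium: TEN-BT buffer, pH 7.5; doses: pin-transferred compound, 100 nL; times: 10–45 min, room temperature; technique: fluorescence polarization; replication: duplicates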
BasE inh – BasE siderophore enzyme inhibitors, primary screen, biochemical, Acinetobacter baumannii ATCC 17978, fluorescence polarization; inhibition, % (no concentration beside the values); AID 485350, 2010; 84,000 tested, 0.1% active; purified BasE, fluorescence polarization binding displacement;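 active = both replicates above 25% with normal brightness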;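 note: 0% = negative plate control signal and 100% = positive plate control signal; stock transfer was 100 nL into about 30 µL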
Active calls of the source: *; . = no result given. Some of the compounds tested; the hit share may differ from the screen's.

SMILES	LANA-nucl inh	BasE inh
Cc1oc(-c2cccc(Cl)c2)nc1CN1C(=O)CCCc2ccccc21	-0.86	-2.1
COC(=O)c1sccc1NC(=O)Nc1cc(C)oc1C(F)(F)F	-0.009	0.9
COc1ccc(OCC(=O)NCc2ccc(-c3nc4ncccc4o3)cc2)cc1	-0.127	-0.3
C/C(=N\N=C1\NC(=O)C(CC(=O)Nc2ccc(C)c(Cl)c2)S1)C(C)(C)C (configuration not stated)	-1.24	1.2
CCOC(=O)C1CCCN(C(=O)c2cn(CC)c3ccc(S(=O)(=O)N(C)C4CCCCC4)cc3c2=O)C1 (configuration not stated)	0.506	1.1
CCCn1c(SCc2cc(OC)c(OC)cc2C)n[nH]c1=O	.	-0.5
CCOC(=O)c1ccccc1NC(=O)/C(C#N)=C/c1ccc(-c2ccc(Cl)cc2)o1	-4.28*	9.7
O=C1Nc2ccc(I)cc2/C1=C/c1cc(Br)c(O)c(Br)c1	7.62	-20.1
O=C(OCc1ncc(-c2ccccc2)o1)c1ccc(Cl)nc1	.	-2.3
O=C(CCc1ccco1)N(Cc1cccs1)c1ccc2c(c1)OCCO2	.	2.5
Cc1ccccc1-n1c(N)cc(=O)[nH]c1=S	-0.279	3.2
CN(C)c1nc(C(N)=O)nc(N(C)C)n1	1.33	0.6
C/C=C/C=N/Nc1nc2ccccc2s1	.	0.7
COc1ccc(S(=O)(=O)CCC(=O)Nc2cc(C)ccc2OC)cc1	-0.475	-4.4
COc1ccccc1-c1nnc(SCc2cccc(S(=O)(=O)N(C)C)c2)n1N	.	0.6
Nc1nc(CNS(=O)(=O)c2cccc3nsnc23)nn1S(=O)(=O)c1cccc2nsnc12	0.459	1.0
COc1ccc(C2CC(c3cccs3)=NN2C(=O)CSc2nc3ccccc3s2)cc1 (configuration not stated)	.	2.3
CN(Cc1ccccc1)C(=O)c1cc2nc(-c3ccco3)cc(C(F)(F)F)n2n1	-1.19	1.3
CC(C)NS(=O)(=O)c1ccc(NC(=O)CSC(C)(C)C)cc1	.	0.1
CC(=O)N(Cc1cc2cc(C)ccc2[nH]c1=O)C1CCCC1	0.317	-0.6
O=C1COc2ccc(C(=O)CSc3nnc(-c4ccc(O)cc4)c(-c4ccc(O)cc4)n3)cc2N1	1.11	-1.1
CCOc1ccc(S(=O)(=O)N/N=C(\C)c2cccnc2)cc1	.	-2.0
CCn1c(SCC(=O)N2CCCC2)nc2ccccc21	.	1.2
CC(C)(C)C1CCc2[nH]c3ccccc3c2C1 (configuration not stated)	.	0.6
O=C1CC(c2ccccc2)Cc2nc3ncnn3cc21 (configuration not stated)	-1.26	1.7
CCCc1c(C(=O)NC2CCN(Cc3ccccc3)CC2)cnn1-c1ccccc1	.	1.9
N/C(=N\c1nc(=O)c2ccccc2s1)NC(=O)Nc1ccc(F)cc1	.	-0.3
NNC(=O)Cn1nnc(N2CCOCC2)n1	-0.0025	4.1
COC(=O)CC(C1=C(O)CCCC1=O)C1=C(O)CCCC1=O	-0.591	2.2
CCn1c(C(=O)N2CCC(C(=O)NC3CCC(C)CC3)CC2)cc2sccc21 (configuration not stated)	-0.267	2.6
CCN1CCCC1CNc1cc(C)c2ccc(C)cc2n1 (configuration not stated)	.	-1.4
COc1cc(CNCCO)c(Br)cc1OCC(N)=O	0.528	1.4
Cn1c(=O)[nH]c(=O)c2c1nc(Sc1ccccc1)n2Cc1ccccc1	-0.976	2.9
CC1CCCCN1C(=O)CNC(=O)Cc1ccc(Cl)cc1 (configuration not stated)	-0.199	1.6
NC(=O)c1ccc(C(N)=O)cc1	-0.176	-1.0
CN1CCN(S(=O)(=O)c2ccc(Sc3nnc(-c4cccs4)n3-c3ccccc3)nc2)CC1	.	0.2
C=CCn1c2ccccc2c2ccccc21	0.939	1.5
CCn1nnnc1SCC(=O)c1ccc(OC)cc1OC	-1.1	1.2
CC1OC(Nc2ccc(OC(F)(F)F)cc2)C(O)C(O)C1O (configuration not stated)	0.64	1.0
S=C(NCCCN1CCOCC1)N1CC2CCC(CC2)C1	.	0.9
Cc1cc(C(=O)CN2C(=O)NC(C)(c3ccccc3)C2=O)c(C)n1C (configuration not stated)	.	-1.0
CCOC(=O)Nc1ccc2c(COC(=O)[C@H](C)NC(=O)c3ccco3)cc(=O)oc2c1	.	3.6
Cc1sc2nc3ccc(N4CCCCC4)nn3c(=O)c2c1C	.	1.2
O=C(CN1CCCCC1)NC1CC2CCC1C2 (configuration not stated)	2.66	-0.6
CC1Cc2cc(C(=O)Nc3ccc(C(F)(F)F)cc3)ccc2N1S(C)(=O)=O (configuration not stated)	.	4.1
CCOC(=O)c1ccc(N2CC3CCCCN3C2c2ccc(Cl)cc2)cc1 (configuration not stated)	-0.573	.
CC1=Nc2ccccc2NC(C)(C)C1	-0.438	-1.3
N#CCC(=O)c1ccc(F)cc1	.	-0.8
Cc1nc2ccccc2n1C(=O)N(C)C	-0.221	1.5
COc1ccc(CCNC(=O)c2cc3n(n2)C(C(F)(F)F)CC(C2CC2)N3)cc1OC (configuration not stated)	-2.04	-0.7
Cc1ccc(CN2CCC(CNC(=O)CCn3cccn3)CC2)cc1	-0.755	0.9
COc1cc(C(=O)N(CCC#N)Cc2ccncc2)cc(OC)c1OC	.	2.1
Cc1ccc(-c2ccnc3nc(-n4cccc4)nn23)o1	-0.513	.
Cc1ccc(N2CCCC2=O)cc1	1.28	.
CCN1CCC(N(Cc2ccco2)C(=O)Nc2ccccc2C(F)(F)F)CC1	0.396	0.5
Oc1[nH]c2ccccc2c1C1=NCCC1	0.511	2.8
CC(C)Oc1ccc(C2CC(=O)N(C)C2=O)cc1 (configuration not stated)	-0.342	1.5
CCc1c(C)sc(NC(=O)C#Cc2ccccc2)c1C#N	0.142	1.1
CNc1ccccc1C(=O)OCC(=O)c1ccc(F)cc1	.	1.1
Cn1c(SCCN2CCCC2)nnc1-c1ccncc1	0.964	-0.7
Continuation.
SMILES	LANA-nucl inh	BasE inh
CCOC(=O)c1cn(C)c(C(=O)OCC)c1O	-0.764	-2.0
CCCCN=C1NN=C(c2ccc(Cl)cc2)C(C)S1 (configuration not stated)	.	-2.6
N#CCCn1cc(/C=C/C(=O)NCc2ccccc2)c(-c2cc3ccccc3o2)n1	0.186	-1.2
O=C(OC1CCOC1=O)c1cccc(S(=O)(=O)N2CCCC2)c1 (configuration not stated)	.	-0.3
c1ccc(-c2csc(NC3=NCCCCC3)n2)cc1	.	-1.0
O=C1C=CC(=O)C(Sc2nnnn2-c2ccccc2)=C1	-0.191	17.4
O=S(=O)(c1cc(S(=O)(=O)C(F)(F)F)c(Cl)c(S(=O)(=O)C(F)(F)F)c1)C(F)(F)F	.	1.1
Cc1cccc(Nc2nc(N3CCc4ccccc43)ncc2F)c1C	-0.536	-0.5
O=c1c2ccccc2nnn1CSc1nc2ccccc2c(=O)n1CCC1=CCCCC1	.	-3.0
CCN(Cc1ccc(OC)c(F)c1)C(=O)C1CCCO1 (configuration not stated)	.	-0.7
COc1cc2c(cc1OC)[C@@H]1C(=O)c3ccc4c(c3O[C@@H]1CO2)C=CC(C)(C)O4	1.14	-1.0
O=C(O)CC1C(=O)NCCN1C/C=C/c1ccccc1 (configuration not stated)	0.19	-2.7
CCC(C(=O)NC1CCCCC1)n1nc(C)c2c(C)n(-c3ccccc3)nc2c1=O (configuration not stated)	.	-0.3
C=CCNc1nc2ccccn2c(=O)c1/C=C1\SC(=S)N(Cc2ccc3c(c2)OCO3)C1=O	.	-16.0
O=C(CCS(=O)(=O)c1ccccc1)N1CCc2ccccc21	1.14	-2.2
C1=CCC(/C=N/Nc2nc3ccccc3o2)CC1 (configuration not stated)	.	0.5
Cc1ccc(/C=N/NC(=S)N2CCOCC2)cc1	-1.88	-0.3
CN1CCN(CCCNC(=O)Cn2cccc2C(=O)c2ccccc2)CC1	0.14	1.3
Cc1cc(C)cc(NC(=O)C2CCN(c3nc(C)cc(C)n3)CC2)c1	0.821	0.5
Cc1ccc(CN2C(=O)C3CCCN3c3ncccc32)cc1 (configuration not stated)	2.16	.
COC(=O)c1nc(Cl)c(Cl)c(Cl)c1Cl	0.659	-2.2
CC1CN(C(=O)C(C)Oc2ccccc2)CC(C)O1 (configuration not stated)	-0.484	2.7
CCCCCCn1nc(C(=O)OCC(=O)c2ccc[nH]2)c2ccccc2c1=O	.	0.0
Cc1ccc(N(Cc2ccccc2)C(=O)c2cccnc2)cc1	.	-2.7
O=S(=O)(Nc1ccccc1)C(F)(F)F	.	1.3
CCCCCCCCCCOCCC(=O)O	0.121	-0.5
COc1ccc(N(C(N)=S)C2=NCCCCC2)cc1	.	2.2
Cc1nc2c(=O)oc3ccccc3c2n1-c1ccccc1	.	-0.1
Cc1cc(C)nc(N2CCCC(C(N)=O)C2)n1 (configuration not stated)	1.22	-0.1
CCS(=O)(=O)N1CCC2(CC1)N=C(c1ccc(C(C)(C)C)cc1)C(=O)N2	1.53	-3.8
CC1CCCCN1C(=O)N1CCOCC1 (configuration not stated)	.	2.3
CCS(=O)(=O)Nc1ccc(C(=O)NC(C)C)cc1	0.153	0.5
C1CN=C(Nc2nn[nH]n2)C1	.	1.7
CN(C)/C=C1/C(=O)N(c2ccc(Cl)cc2)C(=O)c2ccccc21	.	1.7
Cc1ccc(NC(=O)CCCn2nnc3ccccc3c2=O)nc1	0.932	-0.2
O=C(CSc1ccc(S(=O)(=O)N2CCOCC2)cc1)NC1CCCCC1	-1.05	2.0
N#CCCn1cc(/C=C2\NC(=S)N(c3ccccc3)C2=O)c(-c2ccccc2)n1	.	0.4
CC1C(=O)N2CCCc3cc(NC(=O)c4ccccc4)cc1c32 (configuration not stated)	-1.65	1.8
CNC(=O)CSc1nc2ccccc2s1	.	-0.2
O=C(CC1NCCCNC1=O)Nc1cc(Cl)ccc1Cl (configuration not stated)	-0.609	.

Rewritten as a markdown table: entries from further up
| molecule | LANA-nucl inh | BasE inh |
| --- | --- | --- |
| COC(=O)c1nc(Cl)c(Cl)c(Cl)c1Cl | 0.659 | -2.2 |
| CC1CN(C(=O)C(C)Oc2ccccc2)CC(C)O1 (configuration not stated) | -0.484 | 2.7 |
| CCCCCCn1nc(C(=O)OCC(=O)c2ccc[nH]2)c2ccccc2c1=O | . | 0.0 |
| Cc1ccc(N(Cc2ccccc2)C(=O)c2cccnc2)cc1 | . | -2.7 |
| O=S(=O)(Nc1ccccc1)C(F)(F)F | . | 1.3 |
| CCCCCCCCCCOCCC(=O)O | 0.121 | -0.5 |
| COc1ccc(N(C(N)=S)C2=NCCCCC2)cc1 | . | 2.2 |
| Cc1nc2c(=O)oc3ccccc3c2n1-c1ccccc1 | . | -0.1 |
| Cc1cc(C)nc(N2CCCC(C(N)=O)C2)n1 (configuration not stated) | 1.22 | -0.1 |
| CCS(=O)(=O)N1CCC2(CC1)N=C(c1ccc(C(C)(C)C)cc1)C(=O)N2 | 1.53 | -3.8 |
| CC1CCCCN1C(=O)N1CCOCC1 (configuration not stated) | . | 2.3 |
| CCS(=O)(=O)Nc1ccc(C(=O)NC(C)C)cc1 | 0.153 | 0.5 |
| C1CN=C(Nc2nn[nH]n2)C1 | . | 1.7 |
| CN(C)/C=C1/C(=O)N(c2ccc(Cl)cc2)C(=O)c2ccccc21 | . | 1.7 |
| Cc1ccc(NC(=O)CCCn2nnc3ccccc3c2=O)nc1 | 0.932 | -0.2 |
| O=C(CSc1ccc(S(=O)(=O)N2CCOCC2)cc1)NC1CCCCC1 | -1.05 | 2.0 |

Later entries:
SMILES	LANA-nucl inh	BasE inh
O=C1CCC2(C(=O)OCCCn3c(=O)[nH]c4ccccc43)Sc3ccccc3N12 (configuration not stated)	.	1.3
Cc1ccc(C(C)N2CCN(S(=O)(=O)c3ccc4c(c3)OCCO4)CC2)cc1C (configuration not stated)	0.683	0.1
CCOC(=O)c1cnc2nc[nH]n2c1=O	-0.16	1.9
CC(C)n1nc(C(=O)N2CCC(=O)CC2)c2ccccc2c1=O	.	0.8
Cc1ccc2nc(C(F)(F)F)cc(N3CCN(CCS(=O)(=O)c4ccccc4)CC3)c2c1	-0.908	-1.0
O=C(Oc1ccc(Cl)cc1Cl)c1ccc(Br)cc1	.	3.7
Cn1cc(C(=O)c2cccc(Cl)c2)cc1/C=N\O	-1.47	.
CC(=O)N(Cc1ccc(C(C)C)cc1)c1ccc2oc(-c3ccccc3)nc2c1	.	3.4
COc1ccccc1OCC(=O)Nc1oc(-c2ccccc2)c(-c2ccccc2)c1C#N	0.481	-2.4
CCOC(=O)C1=C(C)NC2=C(C(=O)c3ccccc32)C1c1cccnc1 (configuration not stated)	0.535	12.6
COc1ccc(C(F)(F)F)cc1NC(C)=O	-1.5	2.6
CC(C)OC(=O)C(N)c1ccccc1 (configuration not stated)	0.425	0.4
CCCNC(=O)C(Sc1ccccc1)c1ccccc1 (configuration not stated)	-0.409	0.7
N#Cc1c(N)nc2c(c1N)CC(=O)N2c1ccccc1	.	0.9
Cc1ccc(-c2nc3ncccc3o2)cc1NC(=O)C(C)(C)Oc1ccc(Cl)cc1	2.08	-1.6
C#CCNc1c2c(nc3nnnn13)CCCC2	0.127	-0.7
N#CCOC(=O)c1cccc(I)c1	.	0.0
C=CCN1CCN(C(=O)c2cc(OC)c(OC)cc2OC)CC1	-1.51	0.5
CNC(=O)NC(=O)C(Sc1nnc(SC)s1)c1ccccc1 (configuration not stated)	.	0.4
COc1ccc(-c2nnc3sc(CN4CCc5ccccc54)cn23)cc1	1.61	-1.8

Bioassay records from PubChem.
